H5N1 CPE = MDCK cell protection from H5N1 avian flu | cytopathic effect, luminescence, 72 h; hits give high values; no value below 0 was filed and about half of the inactive calls have no number; reference of the scale not given here | inhibition, % at 50 µM | hit rate 0.07% among 96,000 | AID 740, 2007; in the data active = inhibition above about 25%
* marks the source's active call; other numbers are inactive results; i = inactive. Some of the compounds tested (hit frequency here may not be typical).

SMILES	H5N1 CPE
COc1ccc(OCC(=O)OCC(=O)Nc2ccc(S(=O)(=O)N3CCCCC3)cc2)cc1	0.2
Cc1cc(CSc2ccccc2)ccc1NC(=O)COc1ccccc1	i
Cc1ccc(OCC(=O)NNC(=O)C2CCN(c3nccc(C)n3)CC2)cc1	0.5
Cc1cc(NC(=O)c2cc3ccccc3oc2=O)no1	i
CCCCNC(=O)C1C2C=CC3(CN(Cc4ccc(C)cc4)C(=O)C13)O2 (stereo unspecified)	0.2
O=S(=O)(NCCSc1ccccc1)c1ccc2c(c1)OCCO2	0.7
CCOC(=O)c1ccc(COC(=O)c2cc(=O)[nH]c3ccccc23)o1	0.4
CN(C(=O)Cn1nnc(-c2cccc(C(F)(F)F)c2)n1)C1CCCCC1	0.3
CCCCC(CC)C(=O)NCCc1ccc(S(N)(=O)=O)cc1 (stereo unspecified)	2.1
CCCCNC(=O)CCn1nc(-c2ccccc2)ccc1=O	1.0
Cc1cccc(-c2nnc(N)s2)c1	0.1
CCCS(=O)(=O)N1CCC(C(=O)NC2CCCC(C)C2C)CC1 (stereo unspecified)	i
C=CCn1c(COc2ccccc2)nnc1SCC(=O)NCC(=O)OCC	0.4
NC(=O)C1(N2CCCCC2)CCN(Cc2ccc(F)cc2)CC1	0.5
N#CC1(c2ccccc2)CCCN1C(=O)c1ccc(Br)o1 (stereo unspecified)	1.6
CCN(CC)S(=O)(=O)c1ccc(-c2nnco2)cc1	0.2
CNC(=O)CN(C)S(=O)(=O)c1ccc(OC)c(Cl)c1	i
COc1ccc(Cl)cc1C(=O)NC(=S)Nc1cc(-c2nc3ccccc3[nH]2)ccc1C	1.8
O=C(Nc1ccc(CN2CCCCC2)cc1)c1ccc2c(c1)OCO2	i
Cc1cc(C)c(S(=O)(=O)n2ccc(-c3ccc(OCCN(C)c4ccccn4)cc3)n2)c(C)c1	1.8
CCCCC(=O)Nc1ccc(C(=O)Nc2nc(CC(=O)OCC)cs2)cc1	1.2
C=CCOC(=O)C1=C(C)Nc2nc3ccccc3n2C1c1ccncc1 (stereo unspecified)	0.6
Cn1c(CNC2CCCCC2)c(C#N)c2ccccc21	i
O=c1cc(-c2ccccc2)[nH]c2nc3ccccc3n12	i
NC(=O)CCCc1nc(-c2ccccc2Cl)no1	i
CCn1c(=O)cc(O)c2c(=O)n(C)c(=O)n(C)c21	0.0
CN(C)S(=O)(=O)c1cccc(C(=O)Nc2cc(Cl)ccc2O)c1	1.5
O=C(NS(=O)(=O)c1ccccc1)c1ccccc1F	i
Cc1cc(NC(=O)Nc2ccccc2)n(-c2ccccc2)n1	i
COc1ccc(Cn2c(-c3ccco3)nc3oc4ccccc4c(=O)c3c2=O)cc1	i
Cc1cc(C)n(S(=O)(=O)c2ccc3ccccc3c2)n1	4.0
COc1ccc(NC2SC(=O)N(CC(=O)O)C2=O)cc1 (stereo unspecified)	i
Cc1cc(NCCO)nc(-n2nc(C)cc2C)n1	i
O=Cc1ccc(OC(=O)C2CC(=O)N(c3ccc(F)cc3)C2)cc1 (stereo unspecified)	0.5
O=S1(=O)C=C(Sc2nnc(-c3ccccc3)o2)c2ccccc21	i
CCOC(=O)c1cnc2nc(Cc3ccccc3)[nH]n2c1=O	i
Clc1cccc(Cl)c1COn1nnc2ccccc21	0.5
COc1ccc(NC(=O)CSc2nc3c(cc2C#N)CN(C)CC3)cc1	2.2
CC(Sc1ccsc1[N+](=O)[O-])C(=O)NCCc1ccc(Cl)cc1 (stereo unspecified)	i
CN(Cc1ccccc1)C(=O)CCS(=O)(=O)c1ccc2c(c1)n(C)c(=O)c(=O)n2C	2.9
CCOC(=O)c1c(C)c(C(=O)NCc2ccccc2OC)c(C)n1C	0.6
COc1ccc(Cn2c(CCC(=O)NCc3ccco3)nc3cccnc32)cc1	0.1
Cc1cccc(NC(=O)c2cccc(N3C(=O)C4C5CCC(C5)C4C3=O)c2)c1C (stereo unspecified)	i
NC(=O)C1(N2CCCCC2)CCN(C2CC(=O)N(CCc3ccccc3)C2=O)CC1 (stereo unspecified)	0.1
CC(C)C(=O)Nc1ccc2c(c1)nc(CCN1CCN(C)CC1)n2C	0.7
CC1=C(C(=O)Nc2ccccc2C)C(c2ccc(C)o2)C2=C(CCCC2=O)N1 (stereo unspecified)	0.6
CCOC(=O)CCC(NC(=O)c1cncc(O)c1)C(=O)OCC (stereo unspecified)	i
COc1cc2[nH]c(=O)n(CCC(=O)N3CCC(N4CCCCC4)CC3)c(=O)c2cc1OC	0.4
CCc1nnc(NC(=O)NC(C)(C)C)s1	0.2
O=c1c2ccccc2sn1-c1ccc(S(=O)(=O)N2CCCC2)cc1	0.1
CCCc1nnc(SCc2ccc(C(=O)OC)o2)n1N	1.7
COc1ccc(-c2nnc3n2N=C(C)CS3)cc1OC	0.5
O=C(CN1C(=O)CCSc2ccccc21)Nc1cccc(F)c1	1.6
N#Cc1ccc(NC(=O)c2nc(-c3ccccc3)n(-c3ccccc3)n2)cc1	i
COc1ccc(CCNC(=O)CN2CCC(n3nnc4cc(F)ccc43)CC2)cc1OC	i
CCCc1nc2ccccc2c(=O)n1-c1cccc(OC)c1	1.6
Fc1ccccc1CSc1nnc(Cn2cnc3ccccc32)n1-c1ccccc1	11
CCOc1ccc(N(CC(=O)NCc2ccc(OC)cc2)S(=O)(=O)c2c(C)noc2C)cc1	i
CCN(C(=O)c1ccc(NC(C)=O)cc1)c1ccccc1C	1.2
CCN(CC)S(=O)(=O)c1ccc2oc(Nc3ccc4c(c3)OCCO4)nc2c1	i

Carrying on.
SMILES	H5N1 CPE
CSc1nc2nccc(-c3ccc(-c4ccccc4)cc3)n2n1	0.2
COc1cccc(C(=O)Nc2c3c(nn2-c2cccc(C)c2C)CS(=O)C3)c1OC (stereo unspecified)	0.4
Cc1cc2ncn(CCCCOc3ccccc3)c2cc1C	1.6
COc1ccc(C(=O)N2CC3(CC(c4ccc(Cl)cc4)=NO3)C[C@H]2C(=O)NCC(N)=O)cc1 (stereo partly specified)	i
O=C(CCc1n[nH]c(=O)[nH]c1=O)N1CCOCC1	1.1
COc1ccc(-c2nnc3n2-c2ccccc2SC3)cc1OC	0.9
CC(C)c1ccc(-c2nc(N3CCCC3)nc3n[nH]c(N)c23)cc1	i
COc1ccc(Cl)cc1N(CC(=O)Nc1ccccc1SC)S(C)(=O)=O	1.8
O=C(CSCC(=O)N1CCCCC1)Nc1nc(-c2cccs2)cs1	i
C=CCN1C(=O)C(Cc2cccc(C)c2)SC1=Nc1ccc(C(=O)O)cc1 (stereo unspecified)	1.1
COc1cccc(-c2nn3c(-c4ccccn4)nnc3s2)c1	2.9
COCCn1c(SCC(=O)NC(=O)NCc2ccccc2)nc2ccccc21	i
Cc1ccn2cc(C(=O)Nc3ccccc3N3CCOCC3)nc2c1	0.1
CCCOC(=O)C1[C@H]2C(=O)N(C(C)c3ccc(OC)cc3)C[C@]23C=C[C@H]1O3 (stereo partly specified)	i
COc1ccc(C2c3ccc4ccccc4c3Oc3ncn(CCN4CCOCC4)c(=N)c32)cc1 (stereo unspecified)	i
CCSCCC(NC1=CC(=O)CC(C)(C)C1)C(=O)O (stereo unspecified)	0.1
COc1ccc(NC(=O)Cn2cccc2)c(OC)c1	i
Cc1cc2nc(SCC(=O)O)nc(C)c2cc1C	i
CCOC(=O)Cn1nnc(-c2ccc(SC)cc2)n1	0.4
Cn1c(=O)[nH]c(=O)c2c1nc(CN1CCN(Cc3ccccc3)CC1)n2CC(N)=O	0.8
Cc1cccc(Cn2c(NCCO)nc3c2c(=O)n(C)c(=O)n3C)c1	0.1
CCCCCCOC1(c2ccccc2)OC(=O)c2ccccc21 (stereo unspecified)	0.3
Cc1nc2ccccc2c(-c2ccccc2)c1C(=O)c1ccccc1	0.8
Cc1ccc(OCc2nnc(SCC(=O)Nc3sc(C)c(C)c3C#N)n2C)cc1	0.2
CCc1ccc(N(CC)c2ncnc3nc[nH]c23)cc1	3.0
CN(C)c1nc(SCc2ccc(Cl)cc2)nc2c1CCCC2	0.4
C(=N/N1CCN(c2ccccc2)CC1)/c1cccs1	i
O=S(=O)(N=S(N1CCCCC1)N1CCCCC1)c1ccccc1	0.5
COc1ccc2c(c1)CC1(CN2C)C(=O)NC(=O)N(c2ccc(C)cc2)C1=O (stereo unspecified)	i
CCCOC(=O)Cn1c(=O)c2cc3c(=O)n(CC(=O)OCCC)c(=O)c3cc2c1=O	i
CCOC(=O)C1CCCN(C(=O)c2cn(C)c3ccc(S(=O)(=O)N4CCCC4)cc3c2=O)C1 (stereo unspecified)	2.0
Cc1ccccc1OCC(O)CN (stereo unspecified)	i
Cc1cc(-c2ccccc2)c2c3c(cn2n1)c(=O)n(C)c(=O)n3C	1.7
COc1cccc(C(=O)Nc2nnc(C3CCCO3)s2)c1 (stereo unspecified)	0.9
COc1cc(C2C(C#N)=C(C)NC3=C2C(=O)CC(C)(C)C3)ccc1O (stereo unspecified)	1.4
CCCC(=O)N(c1ccc(F)cc1)C1C=CS(=O)(=O)C1 (stereo unspecified)	i
Cc1ccc(S(=O)(=O)NCCC(=O)Nc2nnc(C)s2)cc1	i
CCOC(=O)c1c(C)[nH]c(C(=O)OC/C(O)=C(\C#N)c2nc3ccccc3[nH]2)c1C	0.3
O=C(NCCC1=CCCCC1)c1cnsn1	8.5
O=C(Nc1ccc(-c2nc3ccccc3[nH]2)cc1)C1CCCO1 (stereo unspecified)	0.1
COC(=O)c1cc2sc(Cl)cc2n1CC(=O)Nc1cccc(SC)c1	1.6
CCCn1c(/N=C/c2ccccc2O)nc2ccccc21	i
O=C(NCc1ccc2c(c1)OCO2)C12CN(Cc3ccccc3)CC1C(c1cccc([N+](=O)[O-])c1)=NO2 (stereo unspecified)	i
O=C(Nc1ccc(Cl)cc1)C1CC=CCC1C(=O)OCC(F)(F)C(F)F (stereo unspecified)	i
O=C(c1ccco1)N1CCN(C(=O)c2ccc(Cn3cc(Br)cn3)o2)CC1	i
O=C(CSc1nc2ccsc2c(=O)n1-c1ccccc1)N1CCCC1	1.5
CCOC(=O)c1c(C)nn(Cc2cccc(Cl)c2)c1N	i
O=C(Cn1c(=O)oc2cc(S(=O)(=O)N3CCCCC3)ccc21)N1CCc2ccccc2C1	i
COc1ccccc1C/C(N)=N/OC(=O)c1ccc(C)c([N+](=O)[O-])c1	0.1
CCN(c1ccccc1)c1nc2ccsc2c(=O)s1	4.5
O=C1CC(c2ccccc2)CC(O)=C1C=NC1CCCC1 (stereo unspecified)	0.5
Cc1ccc(-c2nsc3c(N4CCC(C(N)=O)CC4)ncnc23)cc1	i
COc1ccc(NC(=O)CN(Cc2ccccc2)S(C)(=O)=O)c(OC)c1	0.3
CCOc1cc(C(=S)N2CCC(O)CC2)ccc1OS(=O)(=O)c1ccc(Br)cc1	8.2
CCCOC(=O)c1ccc(NC(=O)c2cnccn2)cc1	1.8
CCN1CCN(c2nc3ccccc3nc2C(C#N)S(=O)(=O)c2ccc(C)c(C)c2)CC1 (stereo unspecified)	3.0
O=C(O)c1ccc(CSc2nc(-c3ccc(Cl)cc3)cc(C(F)(F)F)n2)cc1	0.5
CC12CC3CC(C)(C1)CC(C(=O)NC(=S)N1CCCCC1)(C3)C2	0.3
O=C(O)C1CC=CCC1C(=O)Nc1cccc(F)c1 (stereo unspecified)	i
CCOC(=O)c1cccc(NC(=O)CSc2nc(N)cc(N)n2)c1	1.0

Following part
SMILES	H5N1 CPE
Cc1cccc(NC(=O)CSc2nnc(-c3ccccc3Br)o2)c1C	i
Cc1ccc(NC(=O)c2cc(NC(=O)c3ccco3)ccc2N2CCCCC2)cc1	0.1
c1ccc(-c2nc(NCCCn3ccnc3)c3oc4ccccc4c3n2)cc1	1.3
CCOC(=O)c1c(C)oc2ccc(OCC(=O)N(CC)CC)cc12	0.1
CCOC(=O)CN1CC23C=CC(O2)C(C(=O)Nc2ccc(F)c(C)c2)C3C1=O (stereo unspecified)	i
Clc1cc(Cl)cc(CSc2nnc(-c3sccc3-n3cccc3)o2)c1	1.6
CCCCc1nc(NCCNC(=O)c2ccco2)c(C#N)c2c1CSC(C)(C)C2	i
CCCS(=O)(=O)N1CCCC(C(=O)NC2CCCC(C)C2C)C1 (stereo unspecified)	i
Cc1ccc(Cl)cc1NC(=O)CCn1cccc1	i
CC(C)(C)OC(=O)N1CCC(C(=O)N2CCC[C@H]2C(=O)O)CC1	0.2
Cc1ccc(OCc2nnc(SCC(=O)O)n2N)cc1	0.2
O=C(c1ccccc1)c1ccc(C(=O)N2CCOCC2)cc1	i
C(=C\c1ccccc1)/C=N/Nc1nc(N2CCCCC2)nc(N2CCCCC2)n1	1.2

Of the compounds above, 14 have two or more sulfur atoms.
SMILES	H5N1 CPE
O=S(=O)(NCCSc1ccccc1)c1ccc2c(c1)OCCO2	0.7
O=S1(=O)C=C(Sc2nnc(-c3ccccc3)o2)c2ccccc21	i
CC(Sc1ccsc1[N+](=O)[O-])C(=O)NCCc1ccc(Cl)cc1 (stereo unspecified)	i
O=c1c2ccccc2sn1-c1ccc(S(=O)(=O)N2CCCC2)cc1	0.1
COc1ccc(Cl)cc1N(CC(=O)Nc1ccccc1SC)S(C)(=O)=O	1.8
O=C(CSCC(=O)N1CCCCC1)Nc1nc(-c2cccs2)cs1	i
Cc1ccc(OCc2nnc(SCC(=O)Nc3sc(C)c(C)c3C#N)n2C)cc1	0.2
O=S(=O)(N=S(N1CCCCC1)N1CCCCC1)c1ccccc1	0.5
Cc1ccc(S(=O)(=O)NCCC(=O)Nc2nnc(C)s2)cc1	i
COC(=O)c1cc2sc(Cl)cc2n1CC(=O)Nc1cccc(SC)c1	1.6
O=C(CSc1nc2ccsc2c(=O)n1-c1ccccc1)N1CCCC1	1.5
CCN(c1ccccc1)c1nc2ccsc2c(=O)s1	4.5
CCOc1cc(C(=S)N2CCC(O)CC2)ccc1OS(=O)(=O)c1ccc(Br)cc1	8.2
Clc1cc(Cl)cc(CSc2nnc(-c3sccc3-n3cccc3)o2)c1	1.6

Source: PubChem
